Bioassay records: PubChem BioAssay, Broad Institute
DUX4 inh – DUX4-mediated transcription inhibition. 293T-iDUX4 ZSCAN4-Gaussia luciferase reporter, 24 h; hits give low values. 37,000 compounds, 0.8% hits. AID 1224904. activity change, negative = inhibition, % (concentration not given with the values);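 active = -10% or lower and over 25 points stronger than a control reporter; inconclusive = -10% or lower with a smaller gap; inactive = above -10%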;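 also: 0% = median of neutral control wells and -100% = median of positive control wells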
DUX4 inh difference – recorded beside DUX4 inh, whose call it bears; Gaussia minus Italica difference, %; measured here: selective DUX4 reporter inhibition;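 worked out from the two reporters; negative = selective loss of the DUX4 reporter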
DUX4 inh control – also measured in DUX4 inh; calls as there; activity change, negative = inhibition, %; measured here: Italica tet-on control reporter;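 0 = neutral control and -100 = positive control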
The depositor's hits bear a star; ? = inconclusive; · = no result given; ! = not active in a repeat.

SMILES	DUX4 inh	DUX4 inh difference	DUX4 inh control
C[C@H](CO)N1C[C@H](C)[C@H](CN(C)S(=O)(=O)c2cccs2)OCc2ccccc2-c2ccccc2C1=O	-5	-8	3.5
N#C[C@H]1[C@@H](c2ccccc2-c2ccccc2)[C@@H](CO)N1C(=O)Cc1ccccc1	?	·	·
Cc1cccc(S(=O)(=O)N(C)C[C@H]2OCc3cnnn3CCCC(=O)N([C@@H](C)CO)C[C@@H]2C)c1	-3	-5	2.2
C[C@H]1CN([C@@H](C)CO)S(=O)(=O)c2ccc(C#Cc3ccccc3F)cc2O[C@H]1CN(C)CC1CCOCC1	-4	-4	0.5
CC=Cc1ccc2n(c1=O)C[C@@H]1[C@@H](CO)[C@H](C(=O)N[C@H](C)c3ccccc3)N(C)[C@H]21 (mixture of isomers)	0	1	-0.3
O=C(c1cnccn1)N1CC(=O)N2[C@@H](CO)[C@H](c3ccc(C#CCc4ccccc4)cc3)[C@@H]2C1	0	-7	6.9
O=C(Nc1ccc2c(c1)[C@H]1C[C@H](CC(=O)N3CCOCC3)O[C@@H](CO)[C@H]1O2)c1cccnc1	7	3	3.2
O=C(C[C@@H]1C[C@H]2c3cc(NC(=O)Nc4ccccc4F)ccc3O[C@H]2[C@@H](CO)O1)NCC1CC1	1	-2	3.4
COc1ccccc1CNC(=O)C[C@H]1C=C[C@@H](NC(=O)CC2CC2)[C@@H](CO)O1	12	5	6.7
CCC(=O)N1CC2(C1)CN(CC1CCCCC1)[C@H](CO)c1c2c2ccc(OC)cc2n1C	4	0	3.6
CCCC(=O)Nc1ccc2c(c1)C(=O)N(C)C[C@@H](OC)[C@H](C)CN(Cc1ccc(F)cc1)[C@@H](C)CO2	-6	-9	3.0
COc1ccc2c3c(n(C)c2c1)[C@@H](CO)N(Cc1cc(F)ccc1F)CC31CN(C(C)=O)C1	10	21	-11
COc1ccccc1CN1CC[C@@H]2[C@H]1c1cc(-c3cccc(F)c3)ccc1N[C@@H]2CO	?	·	·
O=C(C[C@H]1CC[C@@H]2[C@H](COC[C@H](O)CN2Cc2cc(F)ccc2F)O1)N[C@H]1CCN(Cc2ccccc2)C1	?	·	·
O=C(C[C@H]1CC[C@@H](NC(=O)CC2CC2)[C@H](CO)O1)NCc1ccc(-c2ccccc2)cc1	1	6	-4.4
N#C[C@H]1N[C@H](CO)[C@H]1c1ccc(-c2ccccc2F)cc1	1	1	-0.8
CO[C@H]1CN(C)C(=O)c2cccc(C#N)c2OC[C@H]2O[C@@H](CC[C@@H]2OC)CCN(C)C(=O)[C@H]1C	1	1	0.2
CN(C)CC(=O)Nc1ccc2c(c1)[C@@H]1C[C@@H](CC(=O)NCC3CC3)O[C@H](CO)[C@@H]1O2	3	-1	3.5
Cc1ccccc1-c1cnc2c(c1)C(=O)N([C@@H](C)CO)C[C@@H](C)[C@H](CN(C)C(=O)c1ccncc1)O2	9	5	3.9
CN1c2ccc(-c3ccccc3)cc2[C@@H]2[C@@H](CCN2C(=O)c2ccncc2)[C@H]1CO	-9	-3	-6.4
CN1c2ccc(C#Cc3cccnc3)cc2[C@H]2[C@H](CCN2S(=O)(=O)c2ccccc2F)[C@@H]1CO	3	12	-9.2
CO[C@@H]1CN(C)C(=O)c2cc(NC(=O)NC(C)C)ccc2OC[C@@H](C)N(CCC(F)(F)F)C[C@H]1C	5	3	1.7
C[C@H]1CN([C@@H](C)CO)C(=O)c2c(c3ccccc3n2C)-c2ccccc2CO[C@@H]1CN(C)C(=O)Nc1cccc(F)c1	?	·	·
O=C(C[C@H]1C[C@@H]2c3cc(NC(=O)C4CCOCC4)ccc3O[C@@H]2[C@H](CO)O1)NCc1ccc(Oc2ccccc2)cc1	?	·	·
CCCNC(=O)N1CC(=O)N2[C@H](CO)[C@@H](c3ccc(C#CCC4CCCC4)cc3)[C@@H]2C1	-6	-8	2.7
SMILES	DUX4 inh	DUX4 inh difference	DUX4 inh control
CO[C@@H]1CN(C)C(=O)c2ccc(NC(=O)C3CCC3)cc2OC[C@@H](C)N(Cc2ccccn2)C[C@@H]1C	0	-3	3.2
C[C@H](O)C#Cc1ccc([C@H]2[C@@H](CO)N3CCCCN(CC4CC4)C[C@H]23)cc1	23	20	2.4
CNC[C@@H]1OCCCC[C@@H](C)Oc2ccc(NS(=O)(=O)c3c(C)noc3C)cc2C(=O)N([C@H](C)CO)C[C@H]1C	-1	-6	4.9
CN1C(=O)c2cc(NC(=O)C3CCOCC3)ccc2OC[C@H]2O[C@H](CC(=O)NCC3CCCCC3)CC[C@@H]21	2	-2	4.5
C[C@@H]1CN([C@H](C)CO)C(=O)c2cc(NC(=O)Nc3cccc4ccccc34)ccc2O[C@@H]1CN(C)C(=O)NC1CCCCC1	-1	-1	0.8
O=C(Cc1ccncc1)NCC[C@H]1CC[C@H](NC(=O)C2CCOCC2)[C@@H](CO)O1	0	7	-7.2
N#Cc1cccc(-c2ccc3c(c2)[C@@H]2[C@@H](CCN2S(=O)(=O)c2ccccc2)[C@H](CO)N3)c1	?	·	·
COc1ccccc1C(=O)Nc1ccc2c(c1)C(=O)N(C)[C@@H]1CC[C@H](CC(=O)NCc3ccc(Cl)c(Cl)c3)O[C@@H]1CO2	-1	0	-1.1
CO[C@@H]1CN(C)C(=O)c2ccc(NC(=O)Cc3ccccc3)cc2OC[C@@H](C)N(CC2CC2)C[C@H]1C	1	1	-0.2
CCCC(=O)Nc1ccc2c(c1)C(=O)N(C)C[C@@H](OC)[C@@H](C)CN(CCC(F)(F)F)[C@@H](C)CO2	3	-4	6.8
O=C(C1CCOCC1)N1[C@@H](CO)[C@@H](c2ccccc2)C12CN(Cc1cccnc1)C2	2	-2	3.8
N#C[C@H]1[C@H](c2ccc(C#Cc3ccccc3F)cc2)[C@@H](CO)N1C(=O)C1CCCCC1	2	1	0.7
C[C@@H]1CN([C@@H](C)CO)C(=O)CCCn2nncc2CO[C@H]1CN(C)S(=O)(=O)c1cccc(F)c1	0	0	0.5
CCC(=O)N1C[C@H]2[C@@H](c3ccccc31)[C@@H](CO)N2C(=O)Nc1ccccc1	2	5	-3.5
CCCNC(=O)N1CC2(C1)CN(C(=O)COC)[C@H](CO)c1[nH]c3cc(OC)ccc3c12	17	10	7.1
CCCNC(=O)N1CC(=O)N2[C@H](C1)[C@@H](c1ccc(C#CCC3CCCC3)cc1)[C@@H]2CO	?	·	·
O=C(c1cccnc1)N1CCCCN2[C@H](CO)[C@H](c3ccc(C#Cc4cccnc4)cc3)[C@H]2C1	?	·	·
O=C(C[C@H]1CC[C@@H]2[C@H](COC[C@@H](O)CN2C(=O)c2cnccn2)O1)N1CCN(c2ccccc2)CC1	2	5	-2.4
C/C=C/c1ccc([C@H]2[C@@H](CO)N(C(C)=O)[C@H]2CN(CCOC)C(C)=O)cc1	4	2	2.6
Cc1noc(C)c1NC(=O)N(C)C[C@@H]1OCCCC[C@H](C)Oc2ccc(NS(=O)(=O)c3cn(C)cn3)cc2C(=O)N([C@@H](C)CO)C[C@@H]1C	1	1	-0.2
CS(=O)(=O)Nc1ccc2c(c1)[C@H]1C[C@@H](CC(=O)NCCc3ccccc3)O[C@@H](CO)[C@H]1O2	8	6	2.0
CNC[C@H]1Oc2ccc(NC(=O)CCC(F)(F)F)cc2C(=O)N([C@@H](C)CO)C[C@@H]1C	-2	-2	-0.1
C[C@@H]1CN([C@@H](C)CO)C(=O)c2cc(NC(=O)Nc3cccc4ccccc34)ccc2O[C@H]1CN(C)C(=O)NC1CCCCC1	6	3	3.0
O=C(C[C@@H]1CC[C@@H](NC(=O)Nc2ccc(F)cc2)[C@@H](CO)O1)NCCN1CCCC1	3	4	-1.1
CC(C)NC(=O)N[C@H]1CC[C@@H](CC(=O)NC2Cc3ccccc3C2)O[C@H]1CO	1	4	-3.8

Record cards, as listed above:
`O=C(C[C@H]1CC[C@@H]2[C@H](COC[C@@H](O)CN2C(=O)c2cnccn2)O1)N1CCN(c2ccccc2)CC1` in the list: DUX4 inh: 2; DUX4 inh difference: 5; DUX4 inh control: -2.4
`O=C(Nc1ccc2c(c1)[C@H]1C[C@H](CC(=O)N3CCOCC3)O[C@@H](CO)[C@H]1O2)c1cccnc1` in the list: DUX4 inh: 7; DUX4 inh difference: 3; DUX4 inh control: 3.2

Arranged by value in DUX4 inh (low to high): three of the compounds above
SMILES	DUX4 inh	DUX4 inh difference	DUX4 inh control
N#C[C@H]1N[C@H](CO)[C@H]1c1ccc(-c2ccccc2F)cc1	1	1	-0.8
CN(C)CC(=O)Nc1ccc2c(c1)[C@@H]1C[C@@H](CC(=O)NCC3CC3)O[C@H](CO)[C@@H]1O2	3	-1	3.5
O=C(Nc1ccc2c(c1)[C@H]1C[C@H](CC(=O)N3CCOCC3)O[C@@H](CO)[C@H]1O2)c1cccnc1	7	3	3.2

Following part:
SMILES	DUX4 inh	DUX4 inh difference	DUX4 inh control
CCS(=O)(=O)N1[C@H](CO)[C@H](c2ccc(C#Cc3ccccc3F)cc2)[C@@H]1C#N	-5	-2	-2.9
O=C(Cc1cccnc1)N1[C@@H]2CNc3ccccc3[C@@H]2[C@@H]1CO	-2	-1	-0.8
C(=C\c1ccc(C2[C@@H]3CN(Cc4nccs4)C[C@H]2N3)cc1)/c1ccccc1 (stereo not given in full)	-32*!	-28*	-4.3*
C[C@@H]1CN([C@H](C)CO)S(=O)(=O)c2ccc(Br)cc2O[C@@H]1CN(C)Cc1cncnc1	-1	-2	1.0
C[C@H]1CN([C@@H](C)CO)C(=O)c2cc(C#Cc3ccccn3)cnc2O[C@H]1CN(C)Cc1cccnc1	1	-3	3.7
O=C(c1cccnc1)N1CC(=O)N2[C@H](C1)[C@H](c1ccc(C#CCC3CCCC3)cc1)[C@@H]2CO	?	·	·
CS(=O)(=O)N1CC(=O)N2[C@H](C1)[C@H](c1ccc(Br)cc1)[C@@H]2CO	3	3	0.2
C/C=C/c1ccc([C@H]2[C@@H](CO)N(C(=O)C3CCC3)C23CN(C(=O)NC(C)C)C3)cc1	2	-3	4.3
CN(C)c1ccc2c(c1)[C@@H]1C[C@@H](CC(=O)NCc3ccncc3)O[C@@H](CO)[C@@H]1O2	10	4	6.1
C[C@H](CO)N1C[C@H](C)[C@@H](CN(C)Cc2cccc(C(F)(F)F)c2)OCc2cnnn2CCCC1=O	-5	-1	-4.2
C[C@@H]1CN([C@@H](C)CO)S(=O)(=O)c2ccc(/C=C/c3ccccc3)cc2O[C@H]1CN(C)C(=O)Nc1cccc(F)c1	-4	-5	1.5
Cc1noc(C)c1S(=O)(=O)Nc1ccc2c(c1)C(=O)N([C@H](C)CO)C[C@H](C)[C@H](CN(C)C(=O)NC1CCCCC1)O2	1	0	0.4
COc1ccc2c3c(n(C)c2c1)[C@@H](CO)N(Cc1ccncc1)CC31CN(C(=O)NC(C)C)C1	5	6	-1.2
O=C1CN(S(=O)(=O)c2ccccc2)C[C@H]2[C@@H](c3ccc(C#CCc4ccccc4)cc3)[C@H](CO)N12	-9	-6	-2.8
C[C@H](CO)N1C[C@H](C)[C@H](CN(C)Cc2ccc3c(c2)OCO3)Oc2c(NC(=O)c3ccncc3)cccc2C1=O	1	0	0.6
C[C@H]1CN([C@@H](C)CO)C(=O)CCCn2cc(nn2)CO[C@@H]1CN(C)S(=O)(=O)c1ccc(-n2cccn2)cc1	4	4	-0.8
C[C@H](CO)N1C[C@H](C)[C@@H](CN(C)Cc2ccc(-c3ccccc3)cc2)Oc2c(NC(=O)Nc3ccc(F)cc3)cccc2C1=O	3	4	-1.8
O=C(C[C@H]1C[C@@H]2c3cc(NC(=O)C4CCOCC4)ccc3O[C@@H]2[C@@H](CO)O1)NCCN1CCCCC1	5	6	-0.3
CCC(=O)N[C@@H]1CC[C@@H](CC(=O)NCC2CC2)O[C@H]1CO	5	0	5.3
C[C@@H]1CN([C@@H](C)CO)C(=O)CCCn2nncc2CO[C@@H]1CN(C)S(=O)(=O)c1ccccc1F	5	5	0.4
Cc1cccc(-c2ccc(C3[C@@H]4CN(Cc5cccc(F)c5)C[C@H]3N4)cc2)c1 (stereo not given in full)	-55*!	-37*	-17*
COCC(=O)N1CC2(CN[C@@H](CO)c3c2c2ccc(OC)cc2n3C)C1	16	19	-2.2
CNC[C@@H]1Oc2c(NC(=O)c3ccc(-c4nccs4)cc3)cccc2C(=O)N([C@@H](C)CO)C[C@@H]1C	0	0	-0.1
O=C(NC1CCCCC1)N[C@H]1CC[C@H](CC(=O)N2CCOCC2)O[C@H]1CO	2	2	0.6
C[C@@H]1CN([C@@H](C)CO)C(=O)c2cccc(NC(=O)c3ccncc3)c2O[C@H]1CN(C)S(=O)(=O)c1ccccc1	1	1	-0.8
CN1CCN(C(=O)C[C@@H]2CC[C@H]3[C@@H](COC[C@@H](O)CN3C(=O)c3ccc(F)cc3)O2)CC1	10	12	-1.3

Individual results from the results shown.
DUX4 inh difference, O=C1CN(S(=O)(=O)c2ccccc2)C[C@H]2[C@@H](c3ccc(C#CCc4ccccc4)cc3)[C@H](CO)N12 : -6
DUX4 inh control, C[C@H]1CN([C@@H](C)CO)C(=O)c2cc(C#Cc3ccccn3)cnc2O[C@H]1CN(C)Cc1cccnc1 : 3.7
DUX4 inh control, C[C@H]1CN([C@@H](C)CO)C(=O)CCCn2cc(nn2)CO[C@@H]1CN(C)S(=O)(=O)c1ccc(-n2cccn2)cc1 : -0.8
DUX4 inh, C(=C\c1ccc(C2[C@@H]3CN(Cc4nccs4)C[C@H]2N3)cc1)/c1ccccc1 (stereo not given in full) : -32*!
DUX4 inh control, CCC(=O)N[C@@H]1CC[C@@H](CC(=O)NCC2CC2)O[C@H]1CO : 5.3
DUX4 inh control, Cc1cccc(-c2ccc(C3[C@@H]4CN(Cc5cccc(F)c5)C[C@H]3N4)cc2)c1 (stereo not given in full) : -17*
DUX4 inh control, C[C@H](CO)N1C[C@H](C)[C@H](CN(C)Cc2ccc3c(c2)OCO3)Oc2c(NC(=O)c3ccncc3)cccc2C1=O : 0.6

An excerpt. The share of hits here may be higher or lower than overall.
